Calb biofilm kill: mixtures killing C. albicans biofilm. C. albicans biofilm persisters + clotrimazole, fluorescence viability; primary screen in compound mixtures of four per well. inhibition, % at 7.6 µM. 0.02% of 120,000 active. AID 1242;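 active = inhibition above 30.3% in the primary screen of four-compound pools, then above 30% when the compound was retested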;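 also: compounds exposed to preformed 24 h biofilms for 48 h; the number belongs to the whole pool; some results filed as inactive read as strong as hits; inactives centre near 12; 0% = biofilm with clotrimazole alone and 100% = kill control; retested singly at about 60 µM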
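Test system: C. albicans biofilms. Buffer or medium: RPMI/MOPS medium, pH 7.0. Timing: 48 h compound exposure at 37 °C. Technique: Alamar Blue fluorescence. Evaluation: percent inhibition of biofilm viability.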
Active calls of the source: *; & = joins results of further samples. Not all compounds are listed (hit frequency here may not be typical).

structure | Calb biofilm kill
CCOC(=O)c1c(C)n(C)c2ccc(OC(=O)c3ccc([N+](=O)[O-])cc3)cc12 | 5
COc1ccc([N+](=O)[O-])cc1NC(=O)C(C)OC(=O)c1cccnc1 (centres undefined) | 13
Cc1nc2ccccc2c(=O)n1NC(=O)c1cccnc1Cl | 0
CSc1nc(N)n2nc(C(C)(C)C)cc2n1 | 15
COc1ccc(CNC(=O)c2ccc(N3CCOCC3)c([N+](=O)[O-])c2)cc1 | 8
CCCCOc1ccc(S(=O)(=O)NNC(=O)c2cc3ccccc3o2)cc1 | 2
Cc1ccc(C(=O)N2CCC3(CC2)Oc2ccc(Cl)cc2C(=O)C32CC(c3cccnc3)=NO2)s1 (centres undefined) | 16
O=C(/C=C/c1ccccc1)N/C(=C/c1ccccc1)C(=O)N1CCOCC1 | 14
CCOC(=O)C1CCN(C(=O)CCS(=O)(=O)c2ccc3c(c2)CCN3C(=O)CC)CC1 | 5
CCC(=O)Nc1cccc(C2=NOC3(C2)C[C@@H](C(N)=O)N(C(=O)c2cc([N+](=O)[O-])cc([N+](=O)[O-])c2C)C3)c1 (some centres undefined) | 5
CCN(CC)C(=O)COC(=O)c1cc(-c2ccco2)nc2ccccc12 | 20
COc1ccccc1NC(=O)c1cc(Cl)nnc1Cl | 19
CCOC(=O)c1c(/N=C/c2cccc([N+](=O)[O-])c2O)sc2c1CCC2 | 13
COc1ccc(-n2cccc2/C=C2\C(=N)N3N=C(c4ccco4)SC3=NC2=O)cc1 | 16
O=C(Nc1ccc(S(=O)(=O)Nc2ncccn2)cc1)c1ccc(S(=O)(=O)N2CCCC2)cc1 | -3
COCC(C)NC(=O)CSc1nc2ccccc2n1CCc1ccccc1 (centres undefined) | 20
O=S(=O)(/N=C(/Nc1ccc(F)cc1F)c1ccccc1)c1ccccc1 | 5
CCCCC1=CC2=C(c3ccco3)C(=O)C(C)(OC(=O)c3ccc(OC)cc3)C(=O)C2=CN1CC(C)C (centres undefined) | 11
CCOC(=O)c1cc(C(=O)NN)c(=O)[nH]c1C | 19
COc1ccc(N2C(=O)CCC(C(=O)N3CCN(c4ccccn4)CC3)C2c2ccc(F)cc2)cc1 (centres undefined) | 5
O=C(CSc1ccc2nnc(-c3cccc(F)c3)n2n1)N1CCCc2ccccc21 | 4
Nc1ccc(C(=O)n2c3ccccc3c3ccccc32)cc1 | 8
COCC(=O)Nc1ccc(OCc2ccccc2)cc1 | 8
O=C(NCC1CCCO1)c1nc2c(nnn2Cc2ccccc2Cl)c(=O)[nH]1 (centres undefined) | 20

Reprinted from the part before: 3 compounds, followed by the next part.
structure | Calb biofilm kill
Nc1ccc(C(=O)n2c3ccccc3c3ccccc32)cc1 | 8
COCC(=O)Nc1ccc(OCc2ccccc2)cc1 | 8
O=C(NCC1CCCO1)c1nc2c(nnn2Cc2ccccc2Cl)c(=O)[nH]1 (centres undefined) | 20
N#C/C(=N\Nc1cccc(F)c1)C(=N)N1CCCCCC1 | 12
COc1ccc(Cl)cc1NC(=O)CN(C)C(=O)COc1ccccc1F | 4
COc1ccc(NS(=O)(=O)c2ccc(NC(=O)c3ccc(Br)cc3)cc2)nn1 | 12
COc1ccccc1-c1ccc(SCC(=O)NCCc2ccccc2)nn1 | 17
O=C(Nc1ccc(N2CCN(C(=O)c3ccccc3)CC2)c(Cl)c1)c1ncn[nH]1 | 11
CCOC(=O)CC1OC(=O)c2cc3c(cc21)C(=O)OC3CC(=O)OCC (centres undefined) | 19
COc1ccc(C2C(=O)c3ccccc3C2=O)cc1OC | 20
CCC(=O)NC(=S)Nc1ccc(NC(=O)c2ccc([N+](=O)[O-])cc2Cl)cc1 | 12
CCCCn1c(-c2cccs2)nc2oc3ccccc3c(=O)c2c1=O | 12
Cc1nn(-c2cc(C(F)(F)F)ccc2Cl)c2nc(C(Cl)(Cl)Cl)[nH]c(=O)c12 | 30
CCCn1c(SCC(=O)NC(C)c2ccccc2)n[nH]c1=O (centres undefined) | 3
COc1cc2c(cc1OC)C(c1cc([N+](=O)[O-])ccc1O)NCC2 (centres undefined) | 1

Entries above that contain a nitro group on carbon (7):
structure | Calb biofilm kill
CCOC(=O)c1c(C)n(C)c2ccc(OC(=O)c3ccc([N+](=O)[O-])cc3)cc12 | 5
COc1ccc([N+](=O)[O-])cc1NC(=O)C(C)OC(=O)c1cccnc1 (centres undefined) | 13
COc1ccc(CNC(=O)c2ccc(N3CCOCC3)c([N+](=O)[O-])c2)cc1 | 8
CCC(=O)Nc1cccc(C2=NOC3(C2)C[C@@H](C(N)=O)N(C(=O)c2cc([N+](=O)[O-])cc([N+](=O)[O-])c2C)C3)c1 (some centres undefined) | 5
CCOC(=O)c1c(/N=C/c2cccc([N+](=O)[O-])c2O)sc2c1CCC2 | 13
CCC(=O)NC(=S)Nc1ccc(NC(=O)c2ccc([N+](=O)[O-])cc2Cl)cc1 | 12
COc1cc2c(cc1OC)C(c1cc([N+](=O)[O-])ccc1O)NCC2 (centres undefined) | 1

(listing goes on)
structure | Calb biofilm kill
O=C(Nc1cc(=O)[nH]c2ncnn12)c1ccccc1F | 3
Cc1ccc(-c2ccc(S(=O)(=O)N3CCCC3)cc2)cc1 | 11
Cc1cccc(NC(=S)N/N=C/C(C)c2ccccc2)c1C (centres undefined) | 0
CCCCOc1ccc(C(=O)OCC(=O)Nc2cc(C)c(C)cc2[N+](=O)[O-])cc1 | 14
CCN(C(=O)CN(C)Cc1c(F)cccc1Cl)c1c(N)n(Cc2ccccc2)c(=O)[nH]c1=O | 15
CC(=O)Cn1nnc(-c2ccc(C(F)(F)F)cc2)n1 | 17
CCOC(=O)c1sc2nccc(OC)c2c1N=CN(C)C | 11
CCNC(=O)COC(=O)c1cc(C)nc2ccccc12 | 13
NC(=O)COC(=O)CC12CC3CC(CC(Br)(C3)C1)C2 | 11
COc1cccc(CN2CCN(Cc3[nH]c4ccccc4c3C)CC2CCO)c1 (centres undefined) | 15
CC1CCN(Cc2nc(Cl)c3c4c(sc3n2)CCC4)CC1 | 12
CCCC(=O)Nc1cccc(NC(=O)c2ccc([N+](=O)[O-])cc2Cl)c1 | 14
O=C(CNc1cccc2ccccc12)N/N=C/c1ccc(OC(=O)/C=C/c2ccco2)cc1 | 11
Oc1[nH]c2c(Cl)cc(Cl)cc2c1N=NC(=S)NCC1CCCO1 (centres undefined) | 6
Cc1cc(/C(N)=N/OC(=O)Nc2ccccc2)no1 | 9
COc1ccc(NC(=O)Nc2c(SC)nsc2SC)cc1 | 8
CCSc1nc2ccccc2c(=O)n1CCc1ccc(OC)c(OC)c1 | 24
COc1ccc(OC)c(/C=N/NC(=O)c2cc(-c3ccc(C)o3)nc3ccccc23)c1 | 9
CCCCN1CN(Cc2ccco2)CNC1=S | -2
COC(C(=O)NC(C(C)C)C(C)C)c1ccccc1 (centres undefined) | 19
CC(C(=O)Nc1c2c(cc3c1CCC3)CCC2)N1CCCC1 (centres undefined) | 3
O=C(Cc1ccccc1[N+](=O)[O-])N1CCN(c2ccc(F)cc2)CC1 | 7
CC(C)(C)n1nnnc1C(c1cccnc1)N1CCN(c2ccccn2)CC1 (centres undefined) | 11
CCc1ccc(C(=O)COC(=O)c2cccnc2Cl)cc1 | 1
COc1ccc(CCNC(=O)CSc2nnc(NC(C)=O)s2)cc1OC | 13
C/C=C\C=C/C(=O)Nc1cccc(C2=NOC3(C2)C[C@H](C(N)=O)N(C(=O)CC)C3)c1 (some centres undefined) | 11
CCOc1ccc(CNCCc2ccc(S(N)(=O)=O)cc2)cc1 | -5
Cc1cc(C)c(-c2csc(NC(=O)/C=C/c3cccs3)n2)c(C)c1 | 19
Cc1nc(-c2ccc(S(=O)(=O)NCC3CCN(C(=O)OC(C)(C)C)CC3)s2)cs1 | 14
CCOC(=O)CSc1nc(C)c(C(C)=O)cc1C(N)=O | 18
CC(=O)Nc1ccc(NC(=O)CSc2nc3ccccc3o2)cc1 | 10
CCOc1ccc(C(=O)NCCCN2CCOCC2)cc1OCC | -1
CCOC(=O)C1=C(O)/C(=C/c2cccc(OC)c2O)N=C1C | 15
CCOc1ccc(/C=N/n2nnnc2N)cc1O | 17
CC(C)CN(Cc1cc(=O)oc2cc(-c3ccccc3)c(O)cc12)CC(C)C | 8
COc1ccc(-c2nc3ccccc3c(=O)n2NC(=O)Cc2ccccc2)cc1 | 22
CCCCSc1cc(C)nc(N)n1 | 4
COc1ccc(NC(=O)NNc2cc(N3CCOCC3)nc(N3CCOCC3)n2)cc1 | 6
Cc1ccccc1NC(=O)COC(=O)c1cc(=O)c2ccccc2o1 | 9
Cc1ccc(CN2C(=O)S/C(=C\c3ccccc3OCC(=O)O)C2=O)cc1 | 16
O=C(COC(=O)c1ncc(Cl)c(Cl)c1Cl)c1ccc(Cl)s1 | 9
COc1ccc(NS(=O)(=O)c2cc(OCC(N)=O)c(C)cc2Cl)cc1 | 8
CCc1ccc(NC(=S)N(CCCN2CCOCC2)Cc2ccco2)cc1 | 3
O=C(Nc1nccs1)c1ccc(-c2ccc(Cl)cc2)o1 | 8
Cc1oc2c(c1C(=O)NCc1cccnc1)C(=O)c1ccccc1C2=O | 6
CCC(C)Sc1cc(C)c(C#N)c2nc3ccccc3n12 (centres undefined) | 2
COc1ccc(OCC(=O)Nc2ccc(NC(=O)c3cccs3)c(OC)c2)cc1 | 6
COc1ccc(C(=O)Nc2nc(N)n(-c3ccccc3)n2)cc1 | 19
CC(OC(=O)c1ccccc1OCc1ccc(Cl)cc1)C(N)=O (centres undefined) | 10
COc1ccc2[nH]cc(CCNS(=O)(=O)c3ccc(F)cc3)c2c1 | 25
COc1ccc(-c2nc3ccccc3c(=O)n2CCOc2c(C)cccc2C)cc1 | 10
Cc1cc(C)cc(NC(=S)Nc2ccc3cn[nH]c3c2)c1 | 11
O=C(Nc1cccc(Cl)c1)c1ccc(F)c(S(=O)(=O)N2CCN(c3ccccn3)CC2)c1 | 8
CCC1=NN(C(=O)CCc2ccccc2O)C(O)(C(F)(F)F)C1 (centres undefined) | 8
CN(C)/N=C/c1ccc(P(c2ccc(/C=N/N(C)C)o2)c2ccc(/C=N/N(C)C)o2)o1 | 9
COc1cc(C(=O)NC2=NCCS2)ccc1OCc1c(C)noc1C | 10
COc1ccccc1NC(=O)Cn1c(O)c(N=NC(=O)c2ccccc2O)c2ccccc21 | -6
COC(=O)N(NC(=O)C(O)(C(C)C)C(C)C)c1ccccc1 | 22
COc1ccc(NC(=O)CSc2nnc(-c3ccoc3C)n2CC2CCCO2)cc1 (centres undefined) | 18
Cn1c(C(=O)N2CCN(c3ccc([N+](=O)[O-])cc3)CC2)cc2c(=O)[nH]c3ccccc3c21 | 11

Brought forward from above: two entries, then new ones.
structure | Calb biofilm kill
COc1ccc(NC(=O)CSc2nnc(-c3ccoc3C)n2CC2CCCO2)cc1 (centres undefined) | 18
Cn1c(C(=O)N2CCN(c3ccc([N+](=O)[O-])cc3)CC2)cc2c(=O)[nH]c3ccccc3c21 | 11
NC(N)=N/N=C/c1c(Cl)cccc1Cl | 2&3
Cc1cc(C2CC(=O)Nc3ccccc3S2)c(C)s1 (centres undefined) | 27
Cc1ccc(CSC2=NCCN2S(=O)(=O)c2ccccc2)cc1 | 3
COc1cc(NC(=O)CCC(=O)OCCCC(F)(F)C(F)(F)F)nc(OC)n1 | 10
COc1cc(/C=C/C(=O)OCC(=O)Nc2cc(S(=O)(=O)N3CCCCC3)ccc2C)ccc1O | 20
S=C1NCCc2ccc(Cl)cc2C1c1ccccc1Cl (centres undefined) | 10
CCOC(=O)C1CCCN(C(=O)c2cc(S(=O)(=O)Nc3ccccc3OC)ccc2C)C1 (centres undefined) | -4
Cc1cc(-c2nc(C)c(C(=O)NNS(=O)(=O)c3ccc(Cl)cc3Cl)s2)no1 | 21
S=C(Nc1cccnc1)Nc1ccccc1Br | 15
Cc1ccc(C(=O)NC(C(=O)Nc2cccc(S(N)(=O)=O)c2)C(C)C)cc1 (centres undefined) | 13
CN(Cc1ccon1)C(=O)CCc1nnc(CCCCc2ccccc2)o1 | 20
COc1ccc(-c2[nH]ncc2CN2CCN(C3CCCCC3)C(=O)C2)cc1F | 22
COC(=O)C1=C(NC(=O)C2CCCCC2)CCS1 | -1
COc1ccc2c(c1)-c1nc(/N=C/c3ccccc3O)sc1CC2 | 15
COc1ccccc1CNc1ccc([N+](=O)[O-])cc1C | -7
O=C(CSc1nc2ccccc2c(=O)n1-c1ccccc1)N1CCc2ccccc2C1 | 16
CCOc1ccc(CC(=O)N2N=C(C)CC2(O)C(F)(F)F)cc1 (centres undefined) | 7
O=C(c1ccc(N2CCCCC2)c([N+](=O)[O-])c1)N(c1ccccn1)c1ccccn1 | 15
Cc1cccc(C(=O)N(NC(=O)Oc2ccccc2)C(C)(C)C)c1 | 19
COc1cccc(NC(=O)Nc2cccs2)c1 | 7
Cc1cc(C)nc(SCc2cc(=O)c(OC(=O)c3ccc(S(=O)(=O)N4CCCC4)cc3)co2)n1 | 12
C/C=C(/C)C(=O)OC1Cc2c(ccc3ccc(=O)oc23)OC1(C)C (centres undefined) | 22
CCC(=O)OCCNc1cc(Sc2nccn2C)c2nonc2c1[N+](=O)[O-] | 20
Cc1cc2n(c(=O)c1C#N)CCCN2c1ccccc1 | 15
CCOC(=O)C1C(c2cccc(F)c2)NC(=S)NC1(O)C(F)(F)F (centres undefined) | 9
CCN(CC)CCNc1ccc(CO)c2sc3ccccc3c(=O)c12 | 17
COCCSc1nnc(NC(=O)Cc2ccc(OC)c(OC)c2)s1 | 10
O=C(COc1ccc(C(=O)c2ccccc2)cc1)NCC(=O)Nc1ccccc1Br | 16
CCOc1ccc(-n2c(=O)c3sccc3n(CC(=O)NCCc3ccc(OC)c(OC)c3)c2=O)cc1 | 3
N#Cc1ccc(S(=O)(=O)N2CCN(c3ncccn3)CC2)cc1 | 19
CCc1ccn2cc(-c3ccc4c(c3)OCO4)nc2c1 | 27

Assay outcomes (PubChem)
